High-throughput results: PubChem BioAssay, Broad Institute
FGF22 binding: shifts melting point of recombinant human FGF22; 340,000 compounds, 1.5% hits; recombinant FGF22 thermal shift, SYPRO orange fluorescence; percent of sucrose octasulfate shift, DMSO zero; calls only at 9.99 µM; Q9HCT0;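 active means melting point raised past a set limit in the mean and every replicate; three in four hits are not shown here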
Target sequence (Q9HCT0 whole entry, looked up): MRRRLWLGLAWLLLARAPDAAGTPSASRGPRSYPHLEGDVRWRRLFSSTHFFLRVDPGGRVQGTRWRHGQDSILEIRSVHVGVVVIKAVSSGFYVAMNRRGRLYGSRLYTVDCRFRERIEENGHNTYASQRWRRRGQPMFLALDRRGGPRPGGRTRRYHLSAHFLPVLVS
rRNA inh HTS: inhibitors of bacterial rRNA selective over humanized ribosomes. GFP signal change (wild-type ribosome), % (no concentration beside the values). 350,000 compounds, 1.6% hits. AID 720706. E. coli WT GFP vs humanized-ribosome RFP mutants, fluorescence, 24 h; hits give low values; DMSO median 0, no signal -100;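 active means significant combined selectivity score with lowered wild-type GFP, culture density cut under 30%, mutant RFP and density less affected; inactive means any of these conditions unmet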; further: one replicate is shown; some compounds called inactive have numbers as strong as hits
AF4-AF9 inh: inhibitors of human MLL-AF4/AF9 interaction | AlphaScreen, biotin-AF4 peptide binding to FLAG-AF9 | 350,000 compounds, 0.47% hits | inhibition, % at 10 µM | AID 651704;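 active means every replicate reaching a set inhibition limit, whatever the replicate mean, cut at about 25% in these data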;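 further: 0% = plate neutral control median and 100% = total signal loss; the record names both 10 and 1 µM as test concentration; the first replicate is given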
Target sequence (P42568 whole entry, looked up): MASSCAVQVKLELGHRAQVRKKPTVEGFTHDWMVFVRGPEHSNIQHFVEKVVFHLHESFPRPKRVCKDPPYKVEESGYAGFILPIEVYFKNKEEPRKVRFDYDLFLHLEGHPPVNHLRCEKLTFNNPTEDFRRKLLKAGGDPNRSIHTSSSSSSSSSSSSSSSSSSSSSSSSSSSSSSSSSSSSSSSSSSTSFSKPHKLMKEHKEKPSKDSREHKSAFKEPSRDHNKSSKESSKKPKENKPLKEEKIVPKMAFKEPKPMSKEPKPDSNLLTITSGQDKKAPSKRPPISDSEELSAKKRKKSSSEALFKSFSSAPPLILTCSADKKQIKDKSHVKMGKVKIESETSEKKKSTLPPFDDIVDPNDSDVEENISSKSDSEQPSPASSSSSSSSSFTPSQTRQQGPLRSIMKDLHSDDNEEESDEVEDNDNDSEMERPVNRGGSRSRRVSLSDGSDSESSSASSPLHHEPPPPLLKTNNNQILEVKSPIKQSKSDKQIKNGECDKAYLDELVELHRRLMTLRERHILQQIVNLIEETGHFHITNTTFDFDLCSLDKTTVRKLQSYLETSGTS
rRNA inh HTS OD600: second read-out of rRNA inh HTS, no call of its own (marks repeat the call); OD600 change, %; measured here: OD600 growth;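 optical density of the mix in the first replicate; 0 = DMSO median and -100 = no signal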
rRNA inh HTS RFP: also measured in rRNA inh HTS; calls as there; RFP signal change, %; measured here: RFP humanized mutant strains;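 first replicate; 0 = DMSO median and -100 = no signal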
* hit, by the source's call; i = inactive. Only part of the results is shown. The share of hits here may be higher or lower than overall.

| entry | Compound | FGF22 binding | rRNA inh HTS | rRNA inh HTS OD600 | rRNA inh HTS RFP | AF4-AF9 inh |
| --- | --- | --- | --- | --- | --- | --- |
| 1 | COc1ccc(NC(=O)Nc2cccc3c2O[C@H](CN(C)C(=O)Nc2c(C)noc2C)[C@@H](C)CN([C@@H](C)CO)C3=O)cc1 | i | 2.3 | 3.5 | -1.5 | 0.1 |
| 2 | C[C@@H]1CN([C@H](C)CO)C(=O)CCCn2cc(nn2)CO[C@H]1CN(C)Cc1ccc(-c2ccccc2)cc1 | i | -6.1 | 0.4 | 2.6 | 4.4 |
| 3 | CC(C)(O)C#Cc1ccc([C@@H]2[C@H]3CN(C(=O)c4ccncc4)CCCCN3[C@H]2CO)cc1 | i | 2.6 | 14.9 | -1.2 | -6.4 |
| 4 | O=C(Nc1ccc(Cl)c(Cl)c1)N[C@@H]1CC[C@H](CCNC(=O)c2ccc(F)cc2)O[C@@H]1CO | i | -57.9 | -78.3 | -11.1 | 0.9 |
| 5 | O=C(CCN1CCCCC1)NCC[C@@H]1CC[C@H](NS(=O)(=O)c2cccc(F)c2)[C@H](CO)O1 | i | -0.4 | 3.2 | -2.8 | -1.6 |
| 6 | O=C(C[C@@H]1C=C[C@@H](NC(=O)c2cccnc2)[C@H](CO)O1)NCc1ccc(Cl)c(Cl)c1 | i | -2.9 | -2.2 | 0.4 | -0.3 |
| 7 | OC[C@H]1[C@@H](c2ccc(C#Cc3ccccc3)cc2)[C@@H]2CN(CC3CCOCC3)CCCCN12 | i | -30.8 | -61.8 | 5.6 | 16.5 |
| 8 | C[C@H](CO)N1C[C@H](C)[C@@H](CN(C)Cc2ccc(Cl)c(Cl)c2)Oc2ccc(NS(=O)(=O)c3ccccc3)cc2CC1=O | i | 0.7 | 0.4 | 9.7 | -0.4 |
| 9 | CC(C)NC(=O)N[C@@H]1C=C[C@@H](CC(=O)NCCN2CCCC2)O[C@H]1CO | i | 1.9 | 2.4 | -0.6 | -2.6 |
| 10 | COc1cccc(NC(=O)N2CC(=O)N3[C@H](CO)[C@@H](c4ccc(C#CC5CCCC5)cc4)[C@H]3C2)c1 | i | 0.7 | -13.5 | 6.2 | 4.1 |
| 11 | CN(C)C(=O)c1ccc(-c2ccc3c(c2)[C@@H]2[C@@H](CCN2Cc2ccc4c(c2)OCO4)[C@H](CO)N3)cc1 | i | -1.3 | -14.2 | -1.1 | -1.6 |
| 12 | COc1ccc(-c2ccc3c(c2)O[C@H](CN(C)C)[C@H](C)CN([C@@H](C)CO)S3(=O)=O)cc1 | i | 2.3 | 6.7 | -0.2 | 0.6 |
| 13 | CO[C@H]1CN(C)C(=O)c2ccc(NC(=O)Nc3cccc(F)c3)cc2OC[C@@H](C)N(C(C)=O)C[C@H]1C | i | -5.0 | -3.0 | 5.2 | 4.4 |
| 14 | Cc1ccc(S(=O)(=O)N(C)C[C@H]2OCCCC[C@@H](C)Oc3ccc(NS(=O)(=O)c4ccc(F)cc4)cc3C(=O)N([C@H](C)CO)C[C@H]2C)cc1 | i | -0.6 | 4.0 | 1.5 | 1.1 |
| 15 | CN(C)CC(=O)N1[C@H](CO)[C@@H](c2ccc(C#CC3CC3)cc2)[C@@H]1C#N | i | 3.6 | 6.5 | 1.0 | 1.4 |
| 16 | CCOC(=O)C1=NOC2(C1)C(=O)Nc1ccc(OC)cc12 (centres undefined) | i | 6.8 | 6.6 | -3.8 | -0.2 |
| 17 | CCCCN(C(C)=O)c1c(CC)nc2ccc(C(=O)NCCc3ccccn3)cn12 | i | -0.1 | 9.3 | -4.9 | -3.1 |
| 18 | C[C@@H]1CN([C@H](C)CO)C(=O)CCCn2cc(nn2)CO[C@@H]1CN(C)Cc1ccc(C(=O)O)cc1 | i | 0.1 | -3.8 | -2.3 | 0.7 |
| 19 | O=C(Nc1ccc2c(c1)OCO2)C1Cc2c(-c3ccccc3Oc3ccccc3)ccnc2O1 (centres undefined) | i | 0.6 | 13.2 | -1.2 | 0.9 |
| 20 | CCCN1[C@@H]2Cn3c(ccc(/C=C/c4ccccc4)c3=O)[C@H]1[C@@H](C(=O)NCC)[C@@H]2CO | i | -0.2 | -14.7 | -0.3 | -14.1 |
| 21 | CCCC(=O)Nc1ccc2c(c1)C(=O)N(C)C[C@H](OC)[C@@H](C)CN(Cc1cccc(F)c1)[C@@H](C)CO2 | i | -3.7 | -17.0 | 1.1 | 0.3 |
| 22 | CCCN1[C@@H]2c3ccc(/C=C/c4ccccc4)c(=O)n3C[C@@H]2[C@@H](CO)[C@@H]1C(=O)N1CCOCC1 | i | 1.7 | 3.8 | 1.0 | -12.4 |
| 23 | CNC[C@@H]1Oc2c(NS(=O)(=O)c3ccc(Cl)cc3)cccc2C(=O)N([C@H](C)CO)C[C@@H]1C | i | 0.8 | 9.5 | -1.3 | -3.7 |
| 24 | C[C@@H]1CN([C@@H](C)CO)C(=O)c2cc(NS(=O)(=O)c3cn(C)cn3)ccc2O[C@@H](C)CCCCO[C@H]1CN(C)S(=O)(=O)c1ccc(F)cc1 | i | -0.9 | -6.6 | -0.9 | -7.3 |
| 25 | C[C@H](CO)N1C[C@H](C)[C@@H](CN(C)S(=O)(=O)c2ccccc2)Oc2ccc(NS(C)(=O)=O)cc2CC1=O | i | 0.4 | -9.9 | -0.8 | -2.7 |
| 26 | CC(C)C#Cc1ccc2c(c1)O[C@@H](CN(C)C(=O)NC(C)C)[C@@H](C)CN([C@H](C)CO)S2(=O)=O | i | 1.8 | 0.7 | -0.3 | -4.0 |
| 27 | O=S(=O)(N[C@H]1CC[C@H](CCn2cc(C3(O)CCCC3)nn2)O[C@@H]1CO)c1ccc(F)cc1 | i | -6.2 | -2.0 | -1.3 | -0.7 |
| 28 | C[C@@H]1CN([C@H](C)CO)C(=O)c2cc(NS(=O)(=O)c3ccccc3)ccc2O[C@H]1CN(C)C(=O)Nc1cccc2ccccc12 | i | -0.7 | -3.0 | 0.9 | -0.1 |
| 29 | C[C@@H]1CN([C@@H](C)CO)C(=O)c2cc(C#Cc3ccccc3)cnc2O[C@H]1CN(C)C(=O)c1ccccn1 | i | -0.4 | -0.4 | -2.0 | -5.2 |
| 30 | C[C@@H]1CN([C@@H](C)CO)C(=O)c2cccc(NC(=O)Nc3ccc(F)cc3)c2O[C@H]1CN(C)Cc1ccc2c(c1)OCO2 | i | -9.0 | -20.3 | -3.4 | 5.3 |
| 31 | Cc1ccc(C)c(S(=O)(=O)Nc2ccc(C(=O)N3CCOCC3)cc2)c1 | i | -1.7 | -2.4 | -2.2 | 1.1 |
| 32 | Cc1ccc(S(=O)(=O)N(C)C[C@H]2Oc3ncc(-c4ccncc4)cc3C(=O)N([C@H](C)CO)C[C@H]2C)cc1 | i | -0.1 | 5.3 | -0.7 | 0.2 |
| 33 | C[C@@H]1CN([C@H](C)CO)C(=O)c2cc(-c3ccc(F)cc3)cnc2O[C@H]1CN(C)Cc1cncnc1 | i | -2.5 | 7.9 | -0.7 | -4.9 |
| 34 | O=C(c1cc(-c2ccccc2)on1)N(Cc1cccnc1)C(c1ccccn1)c1nc2ccccc2[nH]1 (centres undefined) | i | 18.0 | 7.2 | 0.6 | 4.4 |
| 35 | O=C(C[C@H]1CC[C@H]2[C@@H](COC[C@@H](O)CN2Cc2ccc(Oc3ccccc3)cc2)O1)N1CCCCC1 | i | -52.5 | -77.8 | -10.3 | 2.3 |
| 36 | O=C(NC[C@H]1[C@H](c2ccccc2)[C@H](CO)N1C(=O)Cc1cccnc1)C1CC1 | i | 2.1 | 7.4 | -0.5 | -1.0 |
| 37 | CCC(=O)N1CCCC(C)(C(=O)NS(=O)(=O)c2cccs2)C1 (centres undefined) | i | 10.7 | 16.6 | 2.0 | -2.4 |
| 38 | CC(=O)N(C)C[C@H]1Oc2cc(C#CC(C)C)ccc2S(=O)(=O)N([C@H](C)CO)C[C@@H]1C | i | 2.5 | -7.4 | -1.7 | -16.5 |
| 39 | O=C(NC1CCCC1)C(c1ccccc1)n1c(-c2cccc3ccccc23)nc2ccccc21 (centres undefined) | i | -5.3 | -8.9 | -1.1 | 1.1 |
| 40 | Cc1ccc(S(=O)(=O)N(C)C[C@H]2OCCCC[C@H](C)Oc3ccc(NC(=O)Nc4c(C)noc4C)cc3C(=O)N([C@H](C)CO)C[C@H]2C)cc1 | i | -5.7 | 1.8 | -1.6 | -0.8 |
| 41 | Cc1noc(C)c1NC(=O)Nc1ccc2c(c1)C(=O)N([C@H](C)CO)C[C@H](C)[C@@H](CN(C)Cc1ccc(C(F)(F)F)cc1)OCCCC[C@@H](C)O2 | i | 3.8 | 7.6 | 0.3 | 1.3 |
| 42 | O=C(C[C@H]1C[C@H]2c3cc(NC(=O)Nc4ccccc4F)ccc3O[C@H]2[C@H](CO)O1)NCc1ccncc1 | i | -0.5 | 8.6 | -3.4 | -0.6 |
| 43 | C[C@@H]1CN([C@@H](C)CO)S(=O)(=O)c2ccc(-c3ccc(C#N)cc3)cc2O[C@H]1CN(C)C(=O)CN(C)C | i | -0.8 | 3.3 | -1.5 | 0.9 |
| 44 | CC[C@@H](C)[C@H](C(CC(=O)N1CCCC1[C@@H](OC)[C@H](C)C(=O)N[C@H](Cc1ccccc1)c1nccs1)OC)N(C)C(=O)[C@H](NC(=O)[C@@H](C(C)C)N(C)C)C(C)C (some centres undefined) | i | 7.3 | 6.2 | 1.3 | -0.2 |
| 45 | O=C(C(=O)N1CCC(CNS(=O)(=O)c2cc(C(F)(F)F)cc(C(F)(F)F)c2)CC1)c1cccs1 | i | -6.6 | -22.6 | 0.3 | -0.7 |
| 46 | C[C@@H]1CCCCO[C@H](CN(C)Cc2ccccc2)[C@H](C)CN([C@H](C)CO)C(=O)c2cc(N(C)C)ccc2O1 | i | -3.6 | -7.9 | -2.3 | 8.6 |
| 47 | NC(c1csc(Nc2ccccn2)n1)C1CCCCC1 (centres undefined) | i | 11.4 | -3.2 | 4.8 | 4.3 |
| 48 | CCCN(C)C[C@@H]1Oc2cc(C#Cc3ccccn3)ccc2S(=O)(=O)N([C@H](C)CO)C[C@@H]1C | i | 5.2 | 8.8 | 5.2 | 0.9 |
| 49 | N#CC(=Cc1cccs1)c1nc(-c2ccc(Cl)cc2)cs1 | i | 9.3 | 11.0 | 6.7 | 7.5 |
| 50 | O=S(=O)(c1ccc(Cl)cc1)N1CCN(c2nc(C(F)(F)F)nc3ccccc23)CC1 | i | 1.0 | 2.9 | 0.0 | 1.1 |
| 51 | CCCS(=O)(=O)NC(=O)C1(C)CCN(C(=O)c2cc(C(C)(C)C)nn2C)C1 (centres undefined) | i | -1.8 | 14.5 | -1.8 | 0.8 |
| 52 | C[C@@H]1CN([C@H](C)CO)C(=O)c2cc(C#CCc3ccccc3)cnc2O[C@@H]1CN(C)C(=O)C1CCC1 | i | 3.3 | 12.0 | -2.1 | -1.7 |
| 53 | C[C@@H]1CN([C@@H](C)CO)C(=O)Cc2cc(NS(=O)(=O)c3ccccc3)ccc2O[C@H]1CN(C)C(=O)Nc1ccc(C(F)(F)F)cc1 | i | 0.1 | 0.1 | -1.1 | 3.2 |
| 54 | CCCNC(=O)N1CC2(C1)[C@@H](c1ccccc1)[C@@H](CO)N2CC1CCOCC1 | i | -0.3 | 7.6 | 0.6 | -0.8 |
| 55 | COc1ccc(S(=O)(=O)N(C)C[C@@H]2Oc3c(NC(=O)c4nc5ccccc5s4)cccc3C(=O)N([C@@H](C)CO)C[C@@H]2C)cc1 | i | 0.0 | -0.6 | 1.5 | 2.8 |
| 56 | Cc1noc(C)c1NC(=O)N[C@H]1CC[C@H](CC(=O)N2CCCCC2)O[C@H]1CO | i | 0.7 | 8.2 | -3.0 | 0.2 |
| 57 | COC(=O)C[C@@H]1CC[C@@H]2[C@H](COc3ccc(NC(=O)Nc4cccc(F)c4)cc3C(=O)N2C)O1 | i | 0.1 | 3.0 | 3.5 | 0.0 |
| 58 | CO[C@H]1CC[C@H]2CCOc3ccc(C#N)cc3C(=O)N(C)CCCC(=O)N(C)C[C@H]1O2 | i | 0.8 | -11.1 | -2.5 | 1.3 |
| 59 | O=C(NCC[C@@H]1CC[C@@H](NC(=O)c2ccccc2F)[C@@H](CO)O1)c1cnccn1 | i | 3.5 | 9.6 | -0.7 | -1.0 |
| 60 | CC(C)NC(=O)Nc1ccc2c(c1)C(=O)N([C@@H](C)CO)C[C@@H](C)[C@H](CN(C)S(=O)(=O)c1ccccc1)OCCCC[C@H](C)O2 | i | -0.6 | -4.2 | -0.8 | 0.0 |

(next part)
| entry | Compound | FGF22 binding | rRNA inh HTS | rRNA inh HTS OD600 | rRNA inh HTS RFP | AF4-AF9 inh |
| --- | --- | --- | --- | --- | --- | --- |
| 61 | CCC(=O)N1[C@@H]2c3ccc(-c4ccncc4)c(=O)n3C[C@H]1[C@H](CO)[C@H]2C(=O)N1CCc2ccccc2C1 | i | -3.0 | -0.7 | -1.9 | -2.5 |
| 62 | COCC(=O)N(C)C[C@H]1Oc2cc(C#C[C@H](C)O)ccc2S(=O)(=O)N([C@H](C)CO)C[C@H]1C | i | 3.2 | 5.8 | -2.1 | -3.4 |
| 63 | CCC(=O)Nc1ccc2c(c1)C(=O)N(C)C[C@H](OC)[C@@H](C)CN(CC1CC1)[C@@H](C)CO2 | i | 1.6 | -1.8 | -0.6 | -1.1 |
| 64 | C[C@@H]1CN([C@H](C)CO)C(=O)c2ccccc2-c2ccccc2CO[C@H]1CN(C)C(=O)C1CC1 | i | -2.1 | 12.3 | -2.7 | -0.7 |
